High-throughput results (PubChem BioAssay)
WNV protease inh: inhibitors of West Nile virus NS2B-NS3 protease; z-score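 (tested at a level between 10 and 100 µM)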; P06935; hit rate 0.18% among 65,000; WNV NS2B-NS3 protease, fluorogenic substrate Ex360/Em465; stronger effect = lower value;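 active = z-score at -3 or under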;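 also: score is relative to mean and spread of the compound wells of a plate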
Target sequence (P06935 1371-1501 limits assumed): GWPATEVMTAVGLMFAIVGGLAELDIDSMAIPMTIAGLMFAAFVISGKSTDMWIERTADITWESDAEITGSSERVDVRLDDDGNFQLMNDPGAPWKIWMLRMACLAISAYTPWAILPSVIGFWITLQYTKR
Target sequence (P06935 1502-1679 limits assumed): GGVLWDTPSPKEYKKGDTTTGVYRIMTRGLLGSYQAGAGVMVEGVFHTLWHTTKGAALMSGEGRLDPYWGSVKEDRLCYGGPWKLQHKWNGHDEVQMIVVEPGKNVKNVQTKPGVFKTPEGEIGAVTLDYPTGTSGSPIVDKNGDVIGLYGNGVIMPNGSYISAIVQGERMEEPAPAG
Hsc70 ATP site: Hsc70 inhibitors, probe displacement, primary screen, biochemical, fluorescence polarization (AID 568); Hsc70 fluorescence polarization, probe displacement; higher % means a stronger effect; strong numbers were not always called active; displacement, % at 20 µM; hits with a dose series show IC50 in µM; 83,000 tested, under 10 active;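 active = displacement above 50% without optical interference and an IC50 on retest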;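 also: ATPase domain with a fluorescein-tagged ATP probe; 0% = vehicle and 100% = excess ADP; read after one hour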
MT1-MMP reporter: inhibitors of MT1-MMP promoter transcription, cell-based, luciferase reporter, luminescence (AID 618); hit rate 0.62% among 87,000; calls from a first round at 10 µM; hits with a dose series show EC50 in µM; MT1-MMP promoter luciferase reporter cells, luminescence;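 active = over half of the reporter light lost at 10 µM or EC50 under 50 µM; inactive = the rest and hits that failed the dose series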;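 also: actives suppress MT1-MMP promoter-driven transcription so potencies describe inhibitors; HT1080 fibrosarcoma cells; overnight exposure; toxic or luciferase-blocking compounds were not removed from the actives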
Numbers without * were called inactive; i = inactive; . = not tested or not shown. Not all compounds are listed, so the mix of outcomes need not match the whole.

The line under a structure holds: WNV protease inh | Hsc70 ATP site | MT1-MMP reporter
> CCOc1ccc2oc(-c3ccccc3)c(C(=O)N3CCN(CCO)CC3)c2c1
→ 0.03 | 3.7% | i
> COc1ccc(-n2nc3c(c2NC(=O)C2CC2)CS(=O)C3)cc1 (stereo unspecified)
→ 1.9 | -0.3% | i
> COCCCNC(=O)c1cccs1
→ . | -0.3% | i
> Cc1ccc(Cn2c(=O)c3c(nc4n3CCCN4Cc3ccccc3)n(C)c2=O)cc1
→ 0.09 | 1.9% | i
> O=C(NCc1cccnc1)c1ccc(=O)oc1
→ 0.51 | 2.7% | i
> CCOC(=O)c1c(NCC(C)C)c2ccccc2[nH]c1=O
→ . | 5.3% | i
> O=C1NC(=O)C(c2cn(-c3ccccc3)nc2-c2ccc(F)cc2)N1 (stereo unspecified)
→ -0.31 | 1.8% | i
> CC(C)(NO)/C(=N\O)c1ccccc1
→ . | 1.1% | i
> CCCS(=O)(=O)NCc1ccc2c(c1)cc(C)n2C
→ -1.6 | -3.9% | i
> O=C(NCCc1cn2ccsc2n1)c1cccs1
→ 0.43 | 11% | i
> CS(=O)(=O)N1CCC(c2noc(-c3ccc(C(F)(F)F)cc3)n2)CC1
→ 0.48 | -4.4% | i
> Cc1cccc(-c2noc(CN(C(=O)CCc3ccccc3)C(C)C)n2)c1
→ -0.13 | 1.1% | i
> COc1ccc(CCNC(=S)Nc2cc(C)cc(C)c2)cc1
→ . | 0.7% | i
> CC1OC(Nc2cccc3ccccc23)C(O)C(O)C1O (stereo unspecified)
→ -1.5 | -5.1% | i
> COc1cccc(NC(=O)CSc2nccn2-c2cccc(OC)c2)c1
→ 0.07 | -7.0% | i

Some entries already given, showing only MT1-MMP reporter and Hsc70 ATP site.
compound	MT1-MMP reporter	Hsc70 ATP site
O=C1NC(=O)C(c2cn(-c3ccccc3)nc2-c2ccc(F)cc2)N1 (stereo unspecified)	i	1.8%
CC(C)(NO)/C(=N\O)c1ccccc1	i	1.1%

Remaining list, next part.
The line under a structure holds: WNV protease inh | Hsc70 ATP site | MT1-MMP reporter
> CCOC(=O)c1[nH]c2ccc(OC)cc2c1NC(=O)CCN1CCC(C)CC1
→ 0.44 | 1.3% | i
> CC12CCCCN1CCCc1c2[nH]c2ccccc12 (stereo unspecified)
→ -0.09 | 10% | i
> Cc1nn2cc(-c3ccccc3)nc2s1
→ -0.63 | 3.6% | 12µM*
> CC12CCC(C(=O)O)(c3nc(C#N)c(C#N)nc31)C2(C)C (stereo unspecified)
→ 0.62 | -6.0% | i
> Cc1ccc2c(CC(=O)Nc3nc(C)cs3)coc2c1
→ -0.56 | -3.8% | i
> O=C(Cn1ccc2ccccc2c1=O)N1CCN(Cc2ccc3c(c2)OCO3)CC1
→ 0.34 | -2.0% | i
> CN(C)c1ccc(/C=[N+](\[O-])C(C)(C)/C=N/O)cc1
→ -1.3 | -1.1% | i
> CN(Cc1nc(-c2cccnc2)no1)S(=O)(=O)c1ccccc1
→ 0.7 | 3.8% | i
> Cc1nnc(SCCC#N)n(CCC#N)c1=O
→ 0.53 | -2.0% | i
> Cc1ccc(S(=O)(=O)N2CCN(C(=O)CSc3nnnn3C)C2)cc1
→ 0.29 | -6.3% | i
> C=CCSc1nnc(-c2ccccc2NC(C)=O)c(=O)[nH]1
→ 0.12 | 3.7% | i
> CCCSc1nnc(-c2c[nH]c3ccccc23)n1CC
→ -0.47 | -1.3% | i
> COc1ccccc1NC(=O)CN1CCN(c2ccccn2)CC1
→ . | 3.2% | i
> COc1ccccc1C(c1nnnn1CC1CCCO1)N1CCC(C(N)=O)CC1 (stereo unspecified)
→ . | -0.2% | i
> Cn1nc(-c2ccc(Cl)cc2)c2cc(C(=O)N3CCN(c4ccccc4)CC3)sc21
→ 0.94 | -1.5% | i
> CCOC(=O)N1CCN(C(=O)c2nc3ccccc3s2)CC1
→ 0.07 | -1.0% | i
> Cc1ccc(-c2nnc(N(C)C(=O)C3CCCO3)s2)cn1 (stereo unspecified)
→ 1.9 | -0.2% | i
> Cc1cccc(N2CCCn3c2nc2c3c(=O)n(CC(=O)OCc3ccccc3)c(=O)n2C)c1
→ -0.4 | -2.8% | i
> CCc1ccc(NC(=O)Nc2cccs2)cc1
→ 0.15 | -3.2% | i
> COc1cccc(OC)c1C(=O)Nc1ccc(S(=O)(=O)Nc2cc(C)nc(C)n2)cc1
→ 0.91 | -1.3% | i
> CN(Cc1ccccc1)C(=O)CCSc1nc(-c2ccc3c(c2)OCO3)cc(C(F)(F)F)n1
→ . | -2.7% | i
> CC1(C)C(=O)Nc2ccccc2N1C(=O)CN1C(=O)c2ccccc2C1=O
→ 0.56 | 0.8% | i
> Cc1sc(NC(=S)NC(=O)c2ccc(C(C)(C)C)cc2)c(C#N)c1C
→ . | 1.3% | i
> Cc1ccc(S(=O)(=O)NCC(=O)N(CCc2ccccc2)CC(=O)NCc2ccco2)cc1
→ 1.1 | 5.4% | i
> CCN(CC)CCCNC(=O)Cn1cc2c(n1)CCC(C)C2 (stereo unspecified)
→ -0.46 | 1.0% | i
> COc1ccc(CNc2nc3ccccc3n2CCN2CCOCC2)cc1
→ . | -2.6% | i
> CCNC(=O)c1ccccc1NC(=O)c1cccc(S(=O)(=O)N2CCC(C)CC2)c1
→ 0.44 | -5.6% | i
> COc1ccc(Br)cc1C(=O)O
→ 0.06 | 8.8% | i
> Cc1cc(-n2c(SCC(=O)NCc3cccs3)nc3n[nH]c(C)c3c2=N)ccc1Cl
→ 1.5 | 5.9% | i
> COc1ccc(-n2nnnc2SCC(=O)N2CCCc3ccccc32)cc1OC
→ . | 1.2% | i

Compound profiles, from the list above. Screens in order: WNV protease inh	Hsc70 ATP site	MT1-MMP reporter
Profile of `Cc1cccc(N2CCCn3c2nc2c3c(=O)n(CC(=O)OCc3ccccc3)c(=O)n2C)c1` : -0.4	-2.8%	i
Profile of `CCNC(=O)c1ccccc1NC(=O)c1cccc(S(=O)(=O)N2CCC(C)CC2)c1` : 0.44	-5.6%	i
Profile of `COc1ccc(CNc2nc3ccccc3n2CCN2CCOCC2)cc1` : .	-2.6%	i
Profile of `Cc1cc(-n2c(SCC(=O)NCc3cccs3)nc3n[nH]c(C)c3c2=N)ccc1Cl` : 1.5	5.9%	i
Profile of `COc1ccc(-n2nnnc2SCC(=O)N2CCCc3ccccc32)cc1OC` : .	1.2%	i

(further entries)
The line under a structure holds: WNV protease inh | Hsc70 ATP site | MT1-MMP reporter
> COc1cc(SC)ccc1C(=O)Nc1ccon1
→ 1.2 | 1.9% | i
> COc1ccccc1C(=O)Nc1ncc2c(n1)CC(c1ccco1)CC2=O (stereo unspecified)
→ -1.2 | -2.5% | i
> O=C(CSc1nnc(CCc2nc3ccccc3[nH]2)n1-c1ccccc1)NCc1ccccc1
→ . | -0.2% | i
> Brc1ccc(CSc2ncn[nH]2)cc1
→ 1.1 | 1.8% | i
> CC(=O)Nc1nc(CC(=O)c2ccccc2)cs1
→ 0.26 | 1.2% | i
> CN(C)c1ccc(C(=O)c2ccccc2C(=O)O)c(O)c1
→ -0.96 | -3.9% | i
> Cc1ccc(S(=O)(=O)N2CCC(C(=O)N[C@@H](C)C(=O)Nc3ccc4c(c3)OCO4)CC2)cc1
→ -0.34 | 0.8% | i
> O=C/C(=C\Nc1ccccn1)c1nc2ccccc2o1
→ . | 2.0% | i
> COc1ccccc1-c1cc(N)n[nH]1
→ 0.65 | 7.7% | i
> COc1ccccc1NC(=O)CC(NCc1ccccc1)C(=O)O (stereo unspecified)
→ -1.2 | 4.4% | i
> COCCCNC(=O)CN(Cc1ccc(Cl)cc1)S(C)(=O)=O
→ 0.06 | -4.3% | i
> COc1ccc(OC)c(S(=O)(=O)Nc2cc(OC)c(Cl)cc2OC)c1
→ -0.66 | 2.9% | i
> COC(=O)c1cccc(N(C(=O)CNC(=O)c2ccco2)C(C(=O)NC2CCCC2)c2ccco2)c1 (stereo unspecified)
→ -0.22 | 5.2% | i
> COc1cccc(C2=NOC(C(=O)NCc3ccccn3)C2)c1 (stereo unspecified)
→ -0.41 | -2.8% | i
> Cc1ccc(S(=O)(=O)c2c(C)nn(C(C)(C)C)c2OC(=O)c2cccs2)cc1
→ -1.4 | 1.0% | i

The list goes on.
molecule,WNV protease inh,Hsc70 ATP site,MT1-MMP reporter
CCCCOC(=O)CSc1nnc(N)s1,2.1,5.8%,i
COc1cc(C2=NOC(C(=O)NCc3ccco3)C2)cc(OC)c1OC (stereo unspecified),1.2,-4.8%,i
Cc1nn(-c2ccccc2)c2sc(C(=O)N(CC(=O)NC(C)(C)C)Cc3ccco3)cc12,0.03,1.0%,i
Cc1ccc2nc(N3CCN(C(=O)c4cccs4)CC3)c(C#N)cc2c1,1.1,-1.2%,i
COc1cc(NC(=O)COc2ccc(-n3cnnn3)cc2)c(OC)cc1Cl,-0.16,0.9%,i
CCOC(=O)c1ccc(NC(=O)CSc2nc(C)nc3c2c(=O)n(C)c(=O)n3C)cc1,-1.4,-4.2%,i
O=C(Cc1c[nH]c2ccccc12)OCC(=O)c1ccccc1,.,-2.0%,i
CCOC(=O)Cc1c(C)c2c(O)cc(O)cc2oc1=O,3.3,7.6%,i
Cn1c(=O)[nH]c(=O)c2c1nc(CN1CCN(c3ccc(F)cc3)CC1)n2CCc1ccccc1,-0.82,-2.8%,i
CCOC(=O)N1CCN(S(=O)(=O)c2ccc(OC)c3ccccc23)CC1,-0.11,-2.4%,i
CCOC(=O)c1c(C)[nH]c(C(=O)COC(=O)c2ccc(F)c(S(=O)(=O)N3CCOCC3)c2)c1C,-0.35,4.2%,i
CCOC(=O)N1CCC(NC(=O)CCC(=O)N2CCOc3ccc(C)cc32)CC1,-2.4,1.5%,i
Cn1c(=O)cc(OCCCC(=O)NCCN2CCN(c3ccccc3F)CC2)c2ccccc21,-1.2,-1.0%,i
COc1ccccc1NC(=O)Cc1noc(CN(C)Cc2cccs2)n1,-1.4,8.5%,i
CC(=O)Nc1ccc(S(=O)(=O)n2nc(C)cc2C)cc1,1,1.9%,i
CC1(C(=O)CSc2ncn[nH]2)CCC(=O)O1 (stereo unspecified),0.62,-3.6%,i
COC(=O)CSc1nc2ccc(NC(=O)CSc3nnnn3Cc3ccccc3)cc2s1,-0.82,-2.1%,i
COc1ccc(NC(=O)Nc2ccccc2C)c(OC)c1,-0.13,-6.8%,i
CCn1nc(C)c(NC(=O)CSc2nnc(-c3ccco3)n2C)c1C,0.58,7.7%,i
CNC(=O)CSc1nnc(CCc2ccccc2)n1-c1ccccc1,-0.95,-3.8%,i
COc1ccccc1N1CCN(CC(=O)Nc2ccc(C)c(F)c2)CC1,1.6,-5.0%,i
O=C(OCC(=O)N1CCCc2ccccc21)c1ccc(Br)o1,-0.06,-1.9%,i
CCCc1nnc(SCC(=O)N2CCCCC2C)n1CC1CCCO1 (stereo unspecified),.,-6.3%,i
CN1CC=C2C(C#N)=C(N)C(C#N)(C#N)C(c3ccsc3)C2C1 (stereo unspecified),.,26%,i
CC(=O)OC(Cn1ccnc1)c1ccccc1 (stereo unspecified),-0.26,4.1%,i
Nc1ncnc2oc(-c3ccco3)c(-c3ccco3)c12,1.3,1.2%,i
CCOc1ccc(/C=C2/C(=O)N(c3ccc(OC)cc3)C(=S)N2CC(=O)OC)cc1OCC,.,-79%,i
Cc1ccc(C(=O)Nn2c(N)c(S(=O)(=O)c3ccc(C)cc3)c3nc4ccccc4nc32)cc1,.,0.7%,i
COc1ccc(C(OC(=O)c2ccco2)C(=O)NC2CCCCC2)cc1OC (stereo unspecified),1.4,-4.2%,i
O=C(CS(=O)(=O)Cc1ccccc1)N1CCc2ccccc21,-0.02,-2.0%,i
COC(=O)C(C)Sc1nnc(Cc2cc(=O)[nH]c(=O)[nH]2)n1-c1ccc(OC)cc1 (stereo unspecified),-0.36,2.3%,i
CC(Oc1ccccc1)C(=O)Nc1ccc(C(N)=O)cc1 (stereo unspecified),-0.69,-0.1%,i
CC1CC(C)CN(CCCNC(=O)CC2Oc3ccccc3NC2=O)C1 (stereo unspecified),-0.53,5.8%,i
CN1CCN(CCCN2c3ccccc3Sc3ccc(Cl)cc32)CC1,0.12,2.0%,i
Cn1cc(Cl)c(C(=O)NC2CCCC2)n1,-0.08,-0.6%,i
O=C(CCNC(=O)Cn1ccc2ccccc2c1=O)NCCN1CCc2ccccc2C1,-0.29,1.9%,i
COc1cccc(C(=O)N(Cc2ccc3c(c2)OCO3)Cc2nc3ccccc3c(=O)[nH]2)c1,-1,-6.7%,i
Cc1nc(SCc2c(F)cccc2Cl)n[nH]1,-1.4,4.1%,i
O=C(NCC1CCCO1)Nc1cccc(Cl)c1 (stereo unspecified),-0.58,4.9%,i
CCOC(=O)c1ccccc1NC1CC(=O)N(c2ccccc2C)C1=O (stereo unspecified),0.11,-2.1%,i
COc1ccc(CCNC(=O)CN2C(=O)c3ccccc3C2=O)cc1,.,6.4%,i
COc1cc2[nH]c(=O)n(CCCCCC(=O)N3CCN(c4ccccn4)CC3)c(=O)c2cc1OC,-0.53,-2.7%,i
O=C1OC(Nc2ccc(F)cc2F)c2ccccc21 (stereo unspecified),1.3,1.8%,i
Cc1ccc(-n2c(CNc3ccc(F)cc3)nnc2SCC(=O)N2CCOCC2)cc1,.,7.9%,i
CCn1nnc(-c2ccccc2NS(=O)(=O)c2ccc(S(=O)(=O)N3CCCCCC3)cc2)n1,-0.02,-9.0%,i
CCOCCOC(=O)c1cccc(NC(=O)OCC)c1,-0.2,-0.4%,i
Cn1nc(OC(=O)Nc2ccc(Cl)cc2)cc1C(F)(F)F,.,7.3%,i
CCCc1ccc(-c2cc(N)n[nH]2)cc1,.,2.7%,i
